GLA inh pH 4.5: inhibitors of human alpha-galactosidase A at pH 4.5; activity change, negative = inhibition, % at 105 µM; purified enzyme, 4-MU-alpha-Gal fluorescence, pH 4.5; 230,000 tested, under 10 active; P06280; inconclusive = small, poorly fitted or top-dose-only inhibition, or a rising curve; inactive = flat fitted curve, though single readings scatter; no compound was filed as active;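 note: 0% = full activity with enzyme and -100% = basal without enzyme; dose as in the result columns while the protocol names 77 µM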
Target sequence (P06280 whole entry, looked up): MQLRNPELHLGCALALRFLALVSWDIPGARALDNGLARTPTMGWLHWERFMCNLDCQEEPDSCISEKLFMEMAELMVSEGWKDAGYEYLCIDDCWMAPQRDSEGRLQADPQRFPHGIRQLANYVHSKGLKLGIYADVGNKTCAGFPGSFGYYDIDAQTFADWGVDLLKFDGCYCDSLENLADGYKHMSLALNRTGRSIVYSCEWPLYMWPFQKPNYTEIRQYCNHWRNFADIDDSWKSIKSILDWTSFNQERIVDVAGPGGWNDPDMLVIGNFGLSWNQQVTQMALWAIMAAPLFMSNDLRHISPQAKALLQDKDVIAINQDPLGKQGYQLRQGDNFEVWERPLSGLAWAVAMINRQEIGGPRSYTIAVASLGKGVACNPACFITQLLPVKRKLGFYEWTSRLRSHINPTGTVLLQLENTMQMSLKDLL
Rango dissoc inh: inhibition of RanGTP-driven Rango-importin beta dissociation | AID 540253 | O95149+P62826 | actives 0.071% (n = 340,000) | Potency, µM (highest dose often 46.1 µM), for the others: at the highest dose activity change, negative = inhibition | Biochemical FRET Rango-importin beta, RanGTP-induced dissociation; active means falling FRET ratio curve, often poorly fitted, with flat reads before Ran was added; inconclusive means other falling curves, or compound fluorescence or quenching; inactive means flat or rising ratio curve;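 note: potency is the fitted concentration of half-maximal effect; % of control where 0% means no effect; nearly all actives have a fitted effect of over 45% in size; -100% = wells without RanGTP and RCC1; the record marks most hits as doubtful in a second field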
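Rango (0.1 uM)–importin beta (0.25 uM) complex; RanGTP-RCC1 trigger; 45 min RT; CFP/YFP FRET read.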
Rango-impB inh: Rango-importin beta binding inhibition; Rango CFP/YFP FRET sensor + importin beta, 45 min; Potency, µM (doses to about 92.2 µM), without a hit: top-dose inhibition of complex formation; actives 0.031% (n = 340,000); AID 540263; active = rising FRET ratio curve, often small or poorly fitted; inconclusive = mostly compound fluorescence or quenching in the first reads; inactive = flat curves in all reads;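 note: potency is the fitted concentration of half-maximal effect; 0% = DMSO wells and 100% = buffer wells lacking importin beta; nearly all actives have a fitted effect of over 15% in size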
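FRET biosensor (snurportin 1 IBB flanked by EYFP and cerulean), 50 nM, with compound 5 min, then 0.125 microM importin beta in PBS, 1 mM DTT, 0.02% Tween-20, 0.1% BSA. CFP/YFP ratio read after 45 min at room temperature; pre-read flags interference.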
miR-21 reporter: miR-21 reporter, rising signal | HeLa miR-21 FLuc reporter, luciferase, 48 h | Potency, µM (doses to about 38.3 µM), without a hit: at the highest dose reporter change, positive = more light | 340,000 tested, under 10 active | AID 2288; active = well fitted rising curve with a large enough effect; inconclusive = small, poorly fitted or top-dose-only effect; inactive = no such curve, though single readings can be large or run the other way;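 note: % of control where 0% means no effect; miR-21 action dims this reporter so a rising signal means less miR-21 action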
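HeLa cells endogenously expressing miR-21, stably carrying CMV-driven firefly luciferase with a downstream miR-21 binding site, 2000 cells/well. Titrations up to approximately 40 uM, 48 hours; luciferase luminescence read.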
The depositor's hits bear a star; ? = inconclusive; . = no result given; & = joins results of further samples. Some of the compounds tested; count on the stated rates, not on these rows.

GLA inh pH 4.5,Rango dissoc inh,Rango-impB inh,miR-21 reporter,smiles
3.2,-8.3%,-1.4%,-3.7%,COCCNCCOCCOc1cccc(OC)c1
-2.9,1.9%,2.8%,-5.9%,O=C(CCNS(=O)(=O)c1cccs1)Nc1ccccc1F
.,-0.7%,3.5%,3.8%,Cc1ccc(-n2nc3c(=O)n(CCCC(=O)N4CCCCC4)nc(C)c3c2C)cc1
-3.7,-1.3%,-6.1%,-4.4%,Cn1cnnc1SCC(=O)NC1CCCCC1
.,-1.3%,-0.2%,6.3%,CCN(C(=O)Cn1cnc2c(nc3n2CCCCC3)c1=O)c1cccc(Cl)c1
-1.3,-11.4%,-1.2%,-6.2%,O=C(c1ccco1)N1CCN(S(=O)(=O)c2ccc(Br)s2)CC1
3.8,-1.1%,3.8%,-6.3%,CCCCN(CCCC)c1cc(C)nc(-c2ccccc2O)n1
-28.9,1.6%,-0.5%,-1.2%,COc1ccccc1N1CCN(S(=O)(=O)c2ccc3c(c2)n(C)c(=O)n3C)CC1
-11.1,-9.2%,3.3%,-5.6%,CCOC(=O)c1c(C)c(C(=O)NCc2ccccn2)c(C)n1C
-4.0,-9.7%,0.9%,-2.7%,CCOC(=O)C(NC(=O)CC)(Nc1sc(C)c(CC)c1C#N)C(F)(F)F (centres undefined)
.,-25.4%,-5.9%,.,CC(C)(C)OC(=O)N[C@@H](C(=O)OC(C)(C)C)c1ccc2c(c1)OCO2
.,-17.7%,-4.6%,.,Cc1ccc(C(C)C)c(OCC(=O)NN=C2CCCC(=O)C2)c1
1.3,13.8%,0.3%,2.4%,Cc1ccc(CNC(=O)C2CCCN(S(=O)(=O)c3cccnc3)C2)cc1 (centres undefined)
.,-7.7%,1.6%,.,CC(Sc1ccc(S(=O)(=O)N2CCCCCC2)cn1)C(N)=O (centres undefined)
.,13.0%,-2.8%,.,CC(C)(C)c1sc(N)nc1-c1ccccc1
.,-0.1%,-1.4%,-0.1%,COCCNC(=O)C1CCC(CNS(=O)(=O)c2ccc(F)cc2)CC1 (centres undefined)
-24.0,-0.1%,0.5%,-1.0%,Cc1ccc(C(c2sc3nc(C)nn3c2O)N2CCN(c3ccc(F)cc3)CC2)cc1 (centres undefined)
-10.8,0.6%,-2.1%,-3.1%,CNc1ccc([N+](=O)[O-])cc1C(=O)O
3.1,14.8%,0.1%,-4.1%,O=c1[nH]c2ccc(S(=O)(=O)N3CCN(c4ccc(F)cc4)CC3)cc2o1
-5.1,-5.2%,?,-7.4%,Cn1ncc(Br)c1C(=O)Nc1ccc(F)cc1F
.,-0.2%,-2.8%,.,COc1ccc([C@H]2CC(=O)C=C(c3ccccc3C(F)(F)F)C2)cc1
-3.1,-14.6%,0.2%,16.5%,CCOC(=O)c1ccc(NC(=O)CCc2nc(-c3ccccc3)no2)cc1
-0.6,-6.5%,1.7%,6.5%,CCCC(C)NC(=O)c1nc(-c2ccccc2)n(-c2ccccc2)n1 (centres undefined)
-4.2,-3.0%,0.1%,-1.0%,O=C(O)C1Cc2ccccc2CN1C(=O)c1ccccc1 (centres undefined)

Profiles, quoted from the list.
COc1ccc([C@H]2CC(=O)C=C(c3ccccc3C(F)(F)F)C2)cc1 as listed: GLA inh pH 4.5: .; Rango dissoc inh: -0.2%; Rango-impB inh: -2.8%; miR-21 reporter: .
O=c1[nH]c2ccc(S(=O)(=O)N3CCN(c4ccc(F)cc4)CC3)cc2o1 as listed: GLA inh pH 4.5: 3.1; Rango dissoc inh: 14.8%; Rango-impB inh: 0.1%; miR-21 reporter: -4.1%
CCOC(=O)c1ccc(NC(=O)CCc2nc(-c3ccccc3)no2)cc1 as listed: GLA inh pH 4.5: -3.1; Rango dissoc inh: -14.6%; Rango-impB inh: 0.2%; miR-21 reporter: 16.5%

(next part)
GLA inh pH 4.5,Rango dissoc inh,Rango-impB inh,miR-21 reporter,smiles
0.1,-1.1%,3.9%,-2.4%,O=C(CN1CCN(S(=O)(=O)c2ccccc2[N+](=O)[O-])CC1)Nc1ccc(N2CCOCC2)cc1
.,-5.6%,0.0%,-4.8%,NC(=O)Cn1cc(/C=N\NS(=O)(=O)c2cccc([N+](=O)[O-])c2)c2ccccc21
.,-5.1%,-4.8%,.,O=C(c1cc(COc2ccc(-n3cncn3)cc2)on1)N1CCCC1
-0.2,-1.1%,1.4%,3.1%,Cn1nnnc1SCC(=O)Nc1cccc([N+](=O)[O-])c1
-5.8,?,?,-0.3%,CC(=O)OC(/C(O)=C(\C#N)c1nc2ccccc2[nH]1)c1ccccc1 (centres undefined)
2.6,28.6%,3.3%,-11.0%,CCCCn1nnnc1SCC(=O)Nc1ccc(C)cc1
-4.0,1.0%,5.4%,0.3%,COc1ccc(/C=N/NC(=O)C(C)N(c2ccc(OC)cc2)S(C)(=O)=O)cc1 (centres undefined)
5.3,14.4%,1.2%,-33.5%,CC(=O)c1ccc(NC(=O)CSC(C)C)cc1
8.0,?,?,-69.9%,Nc1c(C(=O)c2ccccc2)oc2ccc(Br)cc12
.,-13.1%,-0.3%,1.3%,O=C(NCc1ccccc1)C1CC(=O)N(c2ccc(OCC(=O)N3CCOCC3)cc2)C1 (centres undefined)
-5.5,-3.7%,-1.2%,0.1%,CCC(=O)N/N=c1/sc2ccccc2n1C
.,-0.4%,1.1%,.,O=C1Cc2cc(NS(=O)(=O)c3ccc([N+](=O)[O-])cc3)cc3c2N1CCC3
8.7,1.4%,2.6%,-2.0%,O=C(O)CC(NCc1ccco1)C(=O)OCCc1ccccc1 (centres undefined)
-9.9,-12.1%,0.0%,-1.2%,CC(=O)NC1C(OCc2ccccc2)OC2COC(c3ccccc3)OC2C1OCC(=O)O (centres undefined)
.,-0.9%,?,6.8%,COc1ccc(NC(=O)NNC(=O)C(C)Oc2ccc(C(C)C)cc2)c(OC)c1 (centres undefined)
-3.9,2.6%,-0.1%,-3.0%,COC(=O)c1ccccc1NC(=O)Cn1cnc2ccc(S(=O)(=O)N3CCC(C)CC3)cc2c1=O
-27.8,1.0%,-2.3%,23.5%,Cc1ccc(-c2nn(-c3ccccc3)cc2CNCc2ccccc2)cc1
0.4&-3.2,4.1%,?,9.7%,CCC1=C(OC(=O)N(CC)CC)N2C(=O)OC(=NCC3CC3)[C@]2(Cc2ccccc2)[C@H]2C1=CC[C@H]1C(=O)N(CC)C(=O)[C@H]12
-7.8,6.7%,-0.9%,-13.8%,COc1ccc(-n2c(=S)[nH]c3ncccc3c2=O)cc1
9.2,3.7%,0.1%,-0.8%,CC(=O)Nc1ccc(S(=O)(=O)/N=C2\SCCN2S(=O)(=O)c2ccc(NC(C)=O)cc2)cc1
.,3.5%,-1.3%,1.7%,CC(C)=CCCC(C)CN1CCC(n2nccc2NC(=O)c2ccc3c(c2)OCO3)CC1 (centres undefined)
3.0&3.5,-12.0%,-0.5%,0.2%,COC(=O)c1ccc(CN2[C@H](C(=O)OC)C[C@@]3(O)[C@@H](O)[C@@H](O)[C@@H](O)C[C@@H]23)cc1
.,4.6%,-2.4%,.,CCN(CC)C(=O)c1nc[nH]c1C(=O)N1CCc2ccccc2C1
2.7,1.5%,-3.4%,6.2%,CCC1S/C(=N/N=C/c2ccco2)N(Cc2ccccc2C)C1=O (centres undefined)
-4.3,-6.3%,-5.1%,-3.1%,Cc1cc(C)nc(SC(C)C(=O)O)n1 (centres undefined)
-4.1,?,?,-1.1%,CC(CS(=O)(=O)c1cccc2cccnc12)N1CCCCC1 (centres undefined)
1.6,8.0%,0.3%,2.5%,CC(C)(C)OC(=O)CNC(=O)c1nc[nH]c1C(=O)NCC(=O)OC(C)(C)C
12.1,12.0%,?,-7.7%,Cc1ccc(S(=O)(=O)N(CC(=O)N/N=C/c2cccc(C)c2)c2cccc3cccnc23)cc1
.,0.1%,2.6%,6.5%,CC(=O)C(c1ccccc1)C(c1ccccc1)C(C)[N+](=O)[O-] (centres undefined)
-3.8,.,.,17.2%,Cc1ccc2nc(NC(=O)C3CCCN(S(=O)(=O)c4cccc5nonc45)C3)sc2c1 (centres undefined)
1.8,-3.3%,-1.2%,-3.7%,COc1ccc(NC(=O)c2cc(C)nc3ccccc23)c(OC)c1
.,-9.1%,-0.1%,-0.3%,CCOc1ccc(S(=O)(=O)N2CCCC(C(=O)NCCN3CCOCC3)C2)cc1Cl (centres undefined)
.,-9.2%,0.8%,.,CC1(c2ccccc2)NC(=O)N(CC(=O)Nc2ccc(S(=O)(=O)NC3=NCCCCC3)cc2)C1=O (centres undefined)
.,-6.7%,0.0%,7.3%,CC(CCc1ccc(O)cc1)NC1c2ccccc2-c2ccccc21 (centres undefined)
.,-14.2%,0.5%,-2.3%,COc1ccc(S(=O)(=O)N(CC(=O)NCc2ccco2)c2ccc(C)cc2)cc1OC
-4.3,?,?,-41.8%,COC(=O)c1nc2ccc(N3CCOCC3)cc2c(C)c1C(=O)OC
8.2,19.9%,3.5%,0.5%,CC(O)c1nc2ccccc2n1CC(=O)Nc1ccc2c(c1)OCCO2 (centres undefined)
-9.9,1.0%,3.1%,0.9%,Cc1cc(N2CCN(c3ccccc3)CC2)nc(-c2ccccc2O)n1
4.1,-30.8%,?,-11.6%,CSc1nc2oc3c(c2c2nncn12)CC(C)(C)SC3
.,5.0%,0.6%,10.4%,COc1cc([N+](=O)[O-])ccc1NC(=O)NCC1CCN(Cc2ccc(Cl)cc2)CC1
.,-7.6%,-0.3%,-1.1%,CN(C)c1ccc(N2C(=NC(=O)CCC3CCCC3)SC3CS(=O)(=O)CC32)cc1 (centres undefined)
-3.0,41.4%,-2.6%,-12.4%,CCn1c(=NC(=O)CSC(C)=O)sc2cc(OC)ccc21
-20.6,-9.1%,-0.5%,1.2%,C=C(C)CSc1nnc([C@H](CCSC)NC(=O)OC(C)(C)C)o1
2.3,2.3%,1.0%,-2.5%,O=C(NCc1ccccc1)N1CCOCC1
.,1.0%,-0.2%,10.9%,CCc1ccc(NC(=O)C2CCCN(S(=O)(=O)c3cccs3)C2)cc1 (centres undefined)
-8.8,6.9%,5.6%,-38.6%,c1ccc(OCCSc2nc3ccccc3o2)cc1
.,-8.4%,-0.4%,-0.2%,COc1ccc(/C=N/N2CCN(c3ccc(Cl)cc3)CC2)cc1
2.5,1.6%,0.1%,0.4%,CCSc1cc(N2CCOCC2)nc(-c2ccc(Cl)cc2)n1
-11.5,5.3%,0.0%,-16.4%,Cc1cc(C(=O)NCc2cccs2)nn1C
.,3.4%,-0.2%,-11.4%,COC(=O)c1ccccc1NC(=O)c1ccc(COc2ccc3c(c2)CCC3)cc1
-2.8,30.4%,0.0%,-0.8%,Cc1cc2[nH]ncc2cc1NC(=S)NC(=O)c1ccccc1
-0.5,43.4%,3.8%,7.6%,CC(C)/C(=N\NS(=O)(=O)c1ccc(Br)cc1)c1cccs1
.,1.2%,0.6%,.,O=C(Cc1cccc(NC(=O)C2CCCN(C(=O)CCc3ccccc3)C2)c1)Nc1cccc(C(=O)N2CCCC2)c1 (centres undefined)
.,20.3%,-3.5%,.,O=S1c2ccccc2Oc2ccccc21
.,-17.3%,6.4%,-0.9%,CCOc1ccccc1CN1CCNC(=O)C1CC(=O)NC1CCCCC1 (centres undefined)
.,-3.1%,0.6%,.,COc1ccc(C(=O)Nc2ccc(S(=O)(=O)N3CCOCC3)cc2)cc1
8.6,6.7%,-0.1%,2.4%,COc1ccccc1NS(=O)(=O)c1cc(NC(=S)NCC2CCCO2)ccc1C (centres undefined)
.,3.9%,-3.4%,.,COc1ccc(NS(=O)(=O)c2cc(NC(=O)c3ccccn3)ccc2OC)cc1Br
